High-throughput results deposited in PubChem BioAssay by ICCB-Longwood Screening Facility, Harvard Medical School.
fixLJ activator – activators of Burkholderia fixLJ two-component system, primary screen, B. multivorans, GFP reporter; B. multivorans fixK-promoter GFP reporter, 18 h; hits give high values; z-score (no concentration beside the values); 29,000 compounds, 0.3% hits; AID 1918990, 2023;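 active = replicate mean overnight rise in green fluorescent reporter signal, 3 or more SD over negative controls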;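 note: score is relative to vehicle wells of the plate; 300 nL library stock went into each well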
* hit, by the source's call; & = joins results of further samples. The list is partial, so the mix of outcomes need not match the whole.

Start of the listing, in advance, four compounds:
SMILES	fixLJ activator
O=C(Nc1cccc(C(F)(F)F)c1)c1cc2nc(-c3ccco3)cc(C(F)(F)Cl)n2n1	-2.52
CC(C)c1ccc(CN2CCCC(O)(CNCCN3CCNCC3)C2=O)cc1 (stereo not drawn)	-0.44
COc1ccc(-c2nc3n(n2)C(c2ccc(O)cc2)C(C(=O)Nc2cccnc2)=C(C)N3)cc1OC (stereo not drawn)	-1.93
Cc1cccc(C)c1NC(=O)c1csc2c1CCCC2	-0.68

All compounds of this part, previewed entries included:
SMILES	fixLJ activator
O=C(Nc1cccc(C(F)(F)F)c1)c1cc2nc(-c3ccco3)cc(C(F)(F)Cl)n2n1	-2.52
CC(C)c1ccc(CN2CCCC(O)(CNCCN3CCNCC3)C2=O)cc1 (stereo not drawn)	-0.44
COc1ccc(-c2nc3n(n2)C(c2ccc(O)cc2)C(C(=O)Nc2cccnc2)=C(C)N3)cc1OC (stereo not drawn)	-1.93
Cc1cccc(C)c1NC(=O)c1csc2c1CCCC2	-0.68
CC(C)(C)NCC(O)c1cc(Cl)c(N)c(Cl)c1 (stereo not drawn)	-0.15
COc1cc2c(cc1OC)CN(C(=O)Nc1ccccc1)CC2	0.93
O=C(NCC1(O)CCCN(C(=O)Cc2cccc(O)c2)CC1)c1ccccc1 (stereo not drawn)	-0.96
Cc1ccc2c(c1)C(=O)OC(C(=O)Nc1ccc(C(=O)O)cc1)C2 (stereo not drawn)	-0.98
CCOc1ccc2nc(N3CCCC(C(=O)Nc4cc(C)ccc4C)C3)sc2c1 (stereo not drawn)	0.82
CNC(=O)c1ccc(S(=O)(=O)NCCc2nc(C)c3c(n2)CCC3)cc1	-2.15
CCOc1ccccc1Nc1nc2ccccc2nc1NS(=O)(=O)c1ccc(Cl)cc1	-1.01
Cc1cc2oc(C(=O)Nc3sc4c(c3C(=O)NCC3CCCO3)CCC4)cc(=O)c2cc1C (stereo not drawn)	-0.71
CCN1C(=O)C(O)(c2c[nH]c3ccccc23)c2cc(Br)ccc21 (stereo not drawn)	-0.97
Cn1c(CCC(=O)N2CCC3(CCCO3)CC2)nc2cccnc21	0.26
COc1c2occc2cc2ccc(=O)oc12	-0.75
Cc1cccc(C(=O)N2CCNC(=O)C2CC(=O)Nc2ccc(F)cc2)c1 (stereo not drawn)	-1.01
Nc1nnc(SCC(=O)NCc2ccccc2CN2CCCC2=O)s1	-1.2
CCC(=O)N1CCC2(CC1)OCCc1cc(C(=O)NCCCCCO)sc12	-0.45
Cc1ccc(-n2c(=O)c3cccnc3n2CC(=O)Nc2ccc(Br)cc2)cc1C	-0.39
CC(C)Cn1c(=O)c2ccccc2n2c(CCC(=O)N3CCN(c4cccc(Cl)c4)CC3)nnc12	-1.08
CC(C)c1nc(CNC(=O)c2ccc(N3CCC4(CCO4)CC3)nc2)no1	-1.31
CCCCNC(=O)CCn1c(=O)c2ccccc2n(Cc2cc(C)ccc2C)c1=O	-0.36
O=C(CCNC(=O)c1ccccc1F)NCCOc1cccc2cccnc12	2.72
CCn1c(-c2ccc(S(=O)(=O)N3CCOCC3)cc2)csc1=Nc1ccc(C)c(Cl)c1	-1.13
O=C1CCC2(CCN1)CCN(C(=O)c1cc(-c3ccccc3O)n[nH]1)CC2	-0.5

Random excerpt: 3 compounds from above
SMILES	fixLJ activator
CCn1c(-c2ccc(S(=O)(=O)N3CCOCC3)cc2)csc1=Nc1ccc(C)c(Cl)c1	-1.13
Cc1cc2oc(C(=O)Nc3sc4c(c3C(=O)NCC3CCCO3)CCC4)cc(=O)c2cc1C (stereo not drawn)	-0.71
Cc1cccc(C)c1NC(=O)c1csc2c1CCCC2	-0.68

Following part.
SMILES	fixLJ activator
Cc1cc(NC(=O)c2cc(Cl)ccc2Cl)ccc1-c1cc2ccccc2oc1=O	-1.12
CCCOc1ccccc1CCNC(=O)C1CCN(C(=O)c2ccc(C)cc2)CC1	-0.33
C#C[C@]1(O)CC[C@H]2[C@@H]3CCC4=Cc5oncc5C[C@]4(C)[C@H]3CC[C@@]21C	-1.35
Cc1ccc(Nc2nnc(-c3ccc(C)c(S(=O)(=O)N4CCN(C)CC4)c3)c3ccccc23)c(C)c1	-0.3
Cc1cccc(Nc2c3c(nc4nncn24)CCC3)c1C	0.25
COc1cccc(NS(=O)(=O)c2ccc3[nH]cc(C(=O)NC4CCCCC4)c(=O)c3c2)c1	-1.22
CCOc1cc(CNc2ccc(O)cc2)cc(Cl)c1OCc1ccccc1	0.21
CN(C)CCCN1c2ccccc2CCc2ccccc21	-1.47&0.27
CC(C)(C)c1ccc(C(=O)Nc2onc3c2CCCC3)cc1	-2.53
Cc1c(C(=O)NCc2cccc(Br)c2)oc2ccc3c(c12)C(=O)CC(C)(C)O3	-0.8
COc1cc(Cl)c(C)cc1NC(=O)Cn1ncc2c(=O)oc3ccccc3c21	-0.18
COc1ccc(CNC(=O)c2cc3cc4ccc(C)cc4nc3o2)cc1	-0.8
CCOc1ccccc1NC(=O)c1c(NC(=O)c2ccncc2)sc2c1CCC(C(C)(C)C)C2 (stereo not drawn)	-0.26
CN(Cc1cnc2ccccc2n1)C(=O)C1CCC(=O)N(C2CCCC2)C1 (stereo not drawn)	1.57
O=C(c1ccccn1)N1CC2CCC(C1)N(C(=O)Cc1ccncc1)C2 (stereo not drawn)	-0.49
CCN(CC)CCOCCOC(=O)C1(c2ccccc2)CCCC1	0.11
Cc1oc2ccc(O)c(CN3CCCC3)c2c1C(=O)Nc1ccc(C(C)C)cc1	-0.1
Fc1cccc(-c2n[nH]c3c2CN(CCc2nc4ccc(F)cc4[nH]2)CC3)c1	-1.59
O=C(NCCc1ccccc1)C(=O)Nc1cccc(Br)c1	-1.72
Cc1ccc(Cl)cc1NC(=O)C1CCN(C(=O)c2cnn(-c3ccccc3)c2-n2cccc2)CC1	-2.28
CC(=O)N1CCOc2c(O)cc(-c3nc4ccccc4s3)cc2C1	0.54
COc1cccc(C(=O)N2c3cc(C)ccc3C(C)(c3ccccc3)CC2(C)C)c1 (stereo not drawn)	-0.94
COc1ccc(Cc2nc(C(C)N)n(CC(=O)N3CCC(O)C3)n2)cc1OC (stereo not drawn)	0.72
Cc1cc(C)n(-c2nc3ccccc3nc2Nc2ccc(Cl)c(Cl)c2)n1	0.13
O=C(c1ncccc1O)N1CCC2OCc3cnnn3C2C1 (stereo not drawn)	0.1

Part of the list above, bar-delimited:
SMILES | fixLJ activator
Cc1cc(NC(=O)c2cc(Cl)ccc2Cl)ccc1-c1cc2ccccc2oc1=O | -1.12
CCCOc1ccccc1CCNC(=O)C1CCN(C(=O)c2ccc(C)cc2)CC1 | -0.33
C#C[C@]1(O)CC[C@H]2[C@@H]3CCC4=Cc5oncc5C[C@]4(C)[C@H]3CC[C@@]21C | -1.35
Cc1ccc(Nc2nnc(-c3ccc(C)c(S(=O)(=O)N4CCN(C)CC4)c3)c3ccccc23)c(C)c1 | -0.3

Next records follow:
SMILES	fixLJ activator
COc1ccc(OC)c(NC(=O)Cn2cnc3onc(-c4ccc(Cl)cc4)c3c2=O)c1	1.19
Cc1ccc(NC(=O)c2ccc(-c3ccccc3)s2)cc1	-1.17
COc1cccc(C2CC(=O)Nc3c2c(=O)n(C)c2nc4ccccc4n32)c1OC (stereo not drawn)	-2.86
COc1ccc(NC(=O)CCc2nnc3n(Cc4ccccc4Cl)c(=O)c4ccccc4n23)cc1	-1.72
CCOC(=O)c1ccc(NC(=O)COC(=O)c2cn(CC)c3nc(C)ccc3c2=O)cc1	0.19
CCN(CCC(=O)Nc1ccccc1C(C)C)Cc1nccn1C	-1.42
COC(=O)C1=C(c2ccccc2)c2ccccc2S(=O)(=O)N1CC(=O)Nc1ccc(OC)cc1OC	1.7
COc1ccc(NC(=O)C(C)n2c(C)c3cnn(-c4ccccc4)c(=O)c3c2C)cc1Cl (stereo not drawn)	-3.16
Cc1cc(C)cc(NC(=O)Nc2c[nH]c(=O)[nH]c2=O)c1	-0.56
CCCCCN1C(C(=O)c2ccccc2)=C(NC(=O)c2ccc(OC)cc2)c2ccccc2S1(=O)=O	-0.74
COc1ccc2c(c1OC)C(=O)O[C@@H]2[C@H]1c2cc3c(cc2CCN1C)OCO3	0.51
Cc1ncc([N+](=O)[O-])n1CC(C)O (stereo not drawn)	-1.15
COc1ccc(-c2cc(C(F)(F)F)n3nc(C(=O)NCC45CC6CC(CC(C6)C4)C5)cc3n2)cc1	-1.8
CC(C)COc1ccc(C(=O)Nc2ccc(S(=O)(=O)Nc3ncccn3)cc2)cc1	0.22
CCCN(C(=O)c1nn(-c2ccc(OC)c(Cl)c2)c(=O)c2c1c1ccccc1n2C)c1ccccc1F	-0.88
Cn1c(=O)c2c(ncn2Cc2ccc(Cl)cc2)n(C)c1=O	-1.03
COc1ccc(NC(=O)CN2CCCN(S(=O)(=O)c3ccc(Br)cc3)CC2)c(OC)c1	0.12
Cc1nc(C(=O)N2CCC(c3nnc(Cn4cccn4)n3C)CC2)cs1	-0.51
O=C(NCc1noc(C2CC2)n1)Nc1ccccc1CCc1ccccn1	0.93
CCOC(=O)c1[nH]c2ccccc2c1NC(=O)c1ccc(C)c(C)c1	0.62
CCC(=O)N1CCc2cc(Br)cc(S(=O)(=O)N3CCC(C(=O)NCCCOC(C)C)CC3)c21	1.43
Cc1cc(C)c(NC(=O)C2CCCN(C(=O)c3cnn(-c4ccccc4)c3-n3cccc3)C2)c(C)c1 (stereo not drawn)	-2.24
CC(C)c1ccc(CNCCSc2nnnn2-c2ccccc2)cc1	-2.36
Cc1ccc(OCC(=O)Nc2sc3c(c2C(N)=O)CCCC3)c(C(C)(C)C)c1	-0.36
O=S(=O)(NCC1(O)CCCNC1)c1ccc(Cl)s1 (stereo not drawn)	-2.09

(more compounds)
SMILES	fixLJ activator
CC(C)c1ccc(NC(=O)CN2C(=O)CN=C(c3ccccc3)c3ccccc32)cc1	-1.36
O=C(O)c1csc(CCNC(=O)N2CCCCC2c2cccnc2)n1 (stereo not drawn)	-1.45
CC#CCC(C)[C@H](O)/C=C/[C@@H]1[C@H]2C/C(=C/CCCC(=O)O)C[C@H]2C[C@H]1O (stereo partly drawn)	-0.96
CCN(CC)c1ccc(NC(=O)CCS(=O)(=O)c2cccc3nsnc23)c(C)c1	-1.15
Oc1ccc(Cl)cc1C1=Nc2ccccc2N=C(c2cccc(Br)c2)C1	2.42
COc1ccc(CNc2oc(/C=C/c3cccc(OC)c3)nc2C#N)cc1	-0.58
Cc1noc(C)c1CN1CC2(CCN(c3cc(C#N)ccn3)CC2)CC1=O	-0.33
CNC(=O)CCc1ccccc1NC(=O)c1ccc(N2CCN(C)CC2)cc1	0.21
O=C(CC1NC(=O)c2ccccc21)Nc1cc2[nH]c(=O)[nH]c2cc1N1CCCC1 (stereo not drawn)	-0.53
O=C(Nc1cc(C(F)(F)F)ccc1Cl)c1cc2nc(-c3ccc4c(c3)OCO4)cc(C(F)(F)F)n2n1	0.67
CCN(CC)S(=O)(=O)NC1COCC1Cc1ccnc2ccccc12 (stereo not drawn)	-1.51
COc1ccc(CNC(=O)Cc2c(C)c3c(O)cc(C)cc3oc2=O)cc1	-1
O=C(c1cc(-c2ccccn2)n[nH]1)N1CCC2(CCCN(CC3CC3)C2=O)C1 (stereo not drawn)	-0.68
COC(=O)C1=C(C)NC(C)=C(C(=O)OCCCN2CCC(c3ccccc3)(c3ccccc3)CC2)C1c1cccc([N+](=O)[O-])c1 (stereo not drawn)	-1.48
COc1ccc(-c2nnn3c2nc(NCc2ccccc2)c2ccccc23)cc1	-2.47
CCOC(=O)c1cc2c(=O)n3ccccc3nc2n(CC2CCCO2)c1=NC(=O)c1ccc(OC)cc1OC (stereo not drawn)	-1.46
Cc1cccc(NC(=O)C2CCC(CNS(=O)(=O)c3ccc(Br)s3)CC2)c1 (stereo not drawn)	-0.23
Cc1ccc(Cc2c(C)nc3nc(SCC(=O)NCCC(C)C)nn3c2C)cc1	-0.96
COCCCNC(=O)CCC(=O)NNc1nc2ccccc2c2nc(-c3ccccc3)nn12	-1.78
Cc1ccc(S(=O)(=O)c2nc(-c3ccc(Cl)cc3)oc2N2CCCCCC2)cc1	-0.25
CCc1nn(CC(=O)NCc2ccc(OC)c(OC)c2)c(=O)c2cc3sc(C)cc3n12	-1.61
CN1CCCN(CC(=O)Nc2ccc(OCC3CCCCO3)cc2)CC1 (stereo not drawn)	0.58
CC1(C(=O)Nc2ncc(Cc3ccc(Br)cc3)s2)Cc2ccccc2C(=O)O1 (stereo not drawn)	0.2
COc1ccc(-c2nc3n(n2)C(c2ccccc2OC)C(C(=O)Nc2cccnc2)=C(C)N3)cc1 (stereo not drawn)	-0.08
Cc1ccc(NC2(C(=O)NCc3cnc(C)cn3)CCCCC2)cc1	0.26

(cont.)
SMILES	fixLJ activator
CC(C)C(=O)N1CCN(C(=O)c2ccccc2)C2CS(=O)(=O)CC21 (stereo not drawn)	-1.44
NC(=O)c1ccnc(N2CC(c3cccc(F)c3F)C3C2C2CCN3CC2)c1 (stereo not drawn)	-0.46
Cc1ccc(Cl)cc1N1CCN(C(=O)c2ccc3nc(N4CCC(C)CC4)sc3c2)CC1	-1.14
COc1ccccc1NC(=O)c1ccc2c(Cl)c3c(nc2c1)CCCC3	0.46
CCCN(Cc1ccsc1)C(=O)c1ccc2c(c1)nc(N1CCOCC1)n2C	-0.98
COC(=O)CCCCCn1c(-c2ccccc2)cn2c3c(=O)n(C)c(=O)n(C)c3nc12	0.46
CCOc1cc(CN2CC(O)C(Cc3cc(C)no3)C2)cc(Cl)c1OCC (stereo not drawn)	-0.18
Cc1n[nH]c(C)c1CCNC(=O)N1CCCC(Cc2nc3ccccc3[nH]2)C1 (stereo not drawn)	-0.35
Cc1cc(C)c(NC(=O)C2CCCN(S(=O)(=O)c3c(C)noc3C)C2)c(C)c1 (stereo not drawn)	-1.5
Cn1ccnc1SCC(=O)Nc1cc(Cl)ccc1Cl	-2.4
Cc1cc(C(=O)N2CCCC(c3nccn3Cc3ccncc3)C2)ccc1F (stereo not drawn)	-0.04
COc1cccc(C2CCN(C(=O)NCC(=O)O)C2)c1OC (stereo not drawn)	0.04

Given as a markdown table: part of the list above
| smiles | fixLJ activator |
| --- | --- |
| CCOc1cc(CN2CC(O)C(Cc3cc(C)no3)C2)cc(Cl)c1OCC (stereo not drawn) | -0.18 |
| Cc1n[nH]c(C)c1CCNC(=O)N1CCCC(Cc2nc3ccccc3[nH]2)C1 (stereo not drawn) | -0.35 |
